High-throughput results deposited in PubChem BioAssay by National Center for Advancing Translational Sciences (NCATS).
PMP22 txn = Cell-based coincidence reporter assay to measure PMP22 gene transcription in S16 Pmp22-F2sN cells - Primary screen; S16 Pmp22-F2sN Schwann cells (luciferase reporters placed in the Pmp22 gene), FLuc/NLuc coincidence luminescence, 24 h; Potency, µM (doses to about 57.5 µM), for the others: at the highest dose activity change, negative = inhibition, usual class: inhibitors; 43,000 compounds, 2% hits; AID 1508649, 2021; active = clear falling dose curves in both reporters; inconclusive = both reporters move, but less clearly or upward; inactive = either reporter flat; the % is the NLuc reporter signal; note: % is set by controls: 0 for no effect and ±100 for the full control effect; some results filed as inactive show a strong effect at the top dose
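qHTS, 1536-well. Cells seeded, compounds added by pin tool, 24 h 37C. Nano-Glo reagent 1 (lysis/FLuc), 10 min RT, read; Stop&Glo, 10 min RT, read NLuc.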
HTT promoter inh = Primary qHTS for Identification of Small Molecule Inhibitors of Huntingtin Promoter Activity; Potency, µM (top dose mostly 57.5 µM), inactives show at the top dose activity change, negative = inhibition, actives largely listed as inhibitors; 48,000 compounds, 0.93% hits; HEK293 HTT promoter firefly luciferase reporter (activity 0% = vehicle and -100% = no light), 24 h; active = well fitted inhibition curve with a large enough effect; inconclusive = small, poorly fitted or top-dose-only effect; inactive = no such curve, though single readings can be large or run the other way; note: nearly all actives have a fitted effect of over 50% in size
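HEK293 cells carrying firefly luciferase reporters were seeded at 2,500 per well in Opti-MEM and cultured for 24 h. They were then treated with compounds at up to 57.5 uM final for 24 h at 37 degrees C before Dual-Glo luminescence readout.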
Starred values were filed as active, the others as inactive; ? = inconclusive; · = no result given; & = joins results of further samples; [ ] = remark or other dose. Potency is the fitted concentration of half-maximal effect.

SMILES	PMP22 txn	HTT promoter inh
CCSc1nc2c(c(=O)[nH]c(=O)n2C)n1CC(O)COc1ccc(Cl)cc1 (stereo not given)	-27.2%	?
Cc1ccccc1Nc1c(-c2ccc(N3CCOCC3)cc2)nc2ccccn12	-0.3%	29.9%
CCc1ccccc1NC(=O)c1sc(-n2nc(C)c(Cc3ccccc3)c2C)nc1C	?	2.3%
O=C(c1ccc2c(c1)N(Cc1ccc(Cl)cc1)C(=O)c1ccccc1S2(=O)=O)N1CCN(c2ccccn2)CC1	?	?
COc1cccc(NC(=O)N2CCC(CN3CCOCC3)CC2)c1	27.4%	-4.6%
COc1ccccc1CNc1nc2c(S(=O)(=O)c3ccc(C)c(C)c3)nnn2c2ccc(Cl)cc12	6.31µM*	9.1%
NS(=O)(=O)c1ccc(C(=O)O)cc1	·	9.4%
CC(C)CC(=O)Nc1nc2c(s1)CC(C(C)(C)C)CC2 (stereo not given)	?	35.0%[activator]
Cc1ccc(NC(=O)Cn2c(=O)n(CCCS(=O)(=O)C3CCCCC3)c(=O)c3ccccc32)cc1F	13.2%	-13.5%
CCOc1ccc(NC(=O)CCS(=O)(=O)c2cccc3nonc23)cc1	?	-4.9%
COc1ccc(-n2c(=O)c3c(c4cc(OC)ccc4n3C)n(Cc3cc(C)ccc3C)c2=O)cc1	-13.7%	0.2%
O=C(CSc1nc(=O)n(Cc2ccco2)c2c1CCC2)NCc1ccc(Cl)cc1	?	-11.5%
O=S(c1cc(Cl)cc(Cl)c1O)c1cc(Cl)cc(Cl)c1O	·	-4.2%
CSc1cccc(-n2nnc(-c3nsc(NC(=O)c4cccs4)n3)c2C)c1	-38.2%	12.1%
CCN(Cc1ccc(OC)cc1)c1ccc(-c2nc(-c3ccncc3)no2)cc1[N+](=O)[O-]	-40.8%	-33.0%
Cc1cc(=O)n(Cc2cccc(Cl)c2)c2c1c(C)nn2C	-27.1%	0.0%
COc1ccc(C(=O)NCc2ccc3c(c2)CCN3C(=O)c2ccc(Cl)cc2)c(OC)c1	?	-16.0%
COc1ccccc1N1CCN(CCN(C(=O)C2CCCCC2)c2ccccn2)CC1	·	-11.1%
O=C(NCCc1ccc(F)cc1)C(=O)NCC(c1ccc2c(c1)OCO2)N1CCOCC1 (stereo not given)	-24.0%	-0.6%
CCN(CC)c1ccc(NC(=O)c2sc3nc4c(cc3c2N)CN(C)CC4)cc1	3.1%	-10.7%
O=C(Nc1ccccc1)N(Cc1cccs1)c1ccc(F)cc1	-4.9%	-22.0%
Cc1ccc(C)c(N2CCN(C(=O)c3cccc(-n4c(C)nc5cccnc54)c3)CC2)c1	?	?
COc1ccc(OC)c(CNC(=O)c2cc3c(-c4ccc(OC)c(OC)c4)nn(C)c3s2)c1	-160.8%	-9.2%
COC(=O)c1c(C)oc2ccc(N(C(=O)c3ccncc3)S(=O)(=O)c3ccc(Br)cc3)cc12	?	?
CCOC(=O)c1cnc2cc(C(F)(F)F)ccc2c1N1CCN(c2ccc(F)cc2)CC1	0.9%	-19.3%
(list continues)
SMILES	PMP22 txn	HTT promoter inh
CN(C)c1ccc(C(CNC(=O)c2ccc(C(C)(C)C)cc2)N2CCCC2)cc1 (stereo not given)	?	-12.1%
CSc1nn(CC(=O)Nc2ccccc2F)c(N)c1S(=O)(=O)c1ccccc1	53.9%	?
CCOc1ccc(CCNC(=O)c2cc3c(=O)n(C)c4ccccc4c3n2C)cc1OCC	?	-10.5%
Cc1ccc(C)c(CSc2c(C(C)C)cnc3c2c(=O)n(C)c(=O)n3C)c1	3.8%	-27.1%
Cc1oc2ncnc(N3CCCCC3)c2c1C(=O)Nc1cccc(F)c1	-15.9%	-10.6%
Cc1ccc2c(CC(=O)Nc3c(C(=O)c4ccc(F)cc4)oc4ccccc34)coc2c1C	-20.8%	6.7%
Cn1nc(-c2ccc(N3CCCCC3)c(NC(=O)c3ccc(Cl)cc3)c2)c2ccccc2c1=O	-3.2%	-8.9%
CCc1ccccc1NC(=O)C1CCN(S(=O)(=O)c2ccccc2)CC1	7.4%	-16.9%
CC(C)(C)OC(=O)N1CCC(c2c(C(=O)N3CCc4ccccc4C3)cnn2-c2ccc(Cl)cc2)CC1	?	-18.4%
CCOc1ccccc1NC(=O)c1c(NC(=O)COc2ccccc2)sc2c1CCCC2	1.2%	-7.9%
CC(C)=CCCC(C)=CCCC(C)=CCCC(C)=CCCC(C)=CCCC(C)=CCCC(C)=CCCC(C)=CCCC(C)=CCO	·	-23.5%
Cc1ccc2c(c1)N(C(=O)c1ccc(F)cc1)C(C)(C)CC2(C)c1ccccc1 (stereo not given)	-17.6%	28.2µM*
COc1cc(C)ccc1OCCSc1nc2ccc(NC(=O)c3ccc(F)cc3)cc2s1	?	-4.2%
Cc1ccc(NC(=O)CSc2nc3ccc(NC(=O)c4cccs4)cc3s2)cc1	-23.7%	-1.6%
CCCCc1ccc(NC(=O)COc2cccc3c(=O)n(C)ccc23)cc1	?	?
Cc1ccc(CN(C(=O)c2ccccc2F)c2ccccn2)o1	-64.5%	-0.7%
CCOc1ccccc1CNC(=O)CCCn1nc(C)c2sc3ccccc3c2c1=O	-8.6%	12.1%
Cc1cccc(Oc2ccc3c(c2)Oc2ccccc2NC3=O)c1	?	-0.6%
COC(=O)C[C@](O)(CCCC(C)(C)O)C(=O)O[C@@H]1C(OC)=C[C@]23CCCN2CCc2cc4c(cc2[C@H]13)OCO4	·	24.8%
CC1=C(C(=O)Nc2cccnc2)C(c2cccc(F)c2)n2nc(SCc3ccccc3)nc2N1 (stereo not given)	?	-12.5%
COc1ccc(/C=C/C(=O)Nc2ccc3nc4c(c(Nc5ccc(OC)c(OC)c5)c3c2)CCCC4)cc1	?	?
Cc1ccc(CNC(=O)Cc2c(C)c3c(cc(C)c4c(C)coc43)oc2=O)cc1	-26.2%	7.8%
COc1ccc2c(c1)c1c(c(=O)n(-c3ccc(F)c(Cl)c3)c(=O)n1Cc1ccccc1F)n2C	-19.2%	-1.6%
O=C(CSc1nc2ccccc2n1Cc1ccccc1)N1CCN(c2ccc(F)cc2)CC1	-0.4%	-27.8%
CC(C)(C)c1ccc(CSC2=Nc3ccccc3C3=NC(CC(=O)NCc4cccs4)C(=O)N23)cc1 (stereo not given)	?	?
Further structures follow.
SMILES	PMP22 txn	HTT promoter inh
C=CCc1cccc2cc(C(=O)Nc3ccc(F)cc3)c(=O)oc12	0.1%	13.1%
Cn1cnc(S(=O)(=O)N2CCC(C(=O)Nc3ccc(OC(F)(F)F)cc3)CC2)c1	?	?
O=C(CSc1nc(-c2ccccc2)nc2c1CCCC2)c1ccc(F)cc1	-7.3%	-11.5%
CC1CC(=O)NN=C1c1ccc(NCC(C)(C)NCC(O)COc2cc(Cl)ccc2C#N)cc1 (stereo not given)	·	4.8%
Cc1cccc(N2CCN(S(=O)(=O)c3cc(C(=O)Nc4ccc(Oc5ccccc5)cc4)ccc3F)CC2C)c1 (stereo not given)	?	1µM*
CN(C)c1ccc(-c2nc3cnccn3c2Nc2cccc(C(F)(F)F)c2)cc1	-24.6%	-1.2%
CCCCC(CC)CN1CN(CC(CC)CCCC)CC(C)(N)C1 (stereo not given)	·	-0.7%
COc1ccccc1CNC(=O)c1cnc2sc(N3CCCCCC3)nn2c1=O	?	-9.1%
COc1ccc(OC)c(CNc2ncnc3c2nc2n3CCCC2)c1	-17.8%	-21.1%
COc1ccc(CC(=O)Nc2sc3c(c2C(=O)Nc2cccc(C)c2)CCCCC3)cc1	10µM*	?
Cc1ccc(CNC(=O)c2c(-c3ccccc3Cl)noc2C)o1	19.9%	-9.7%
CCOC(=O)c1c(C)c(-c2ccccc2)n(CC(=O)Nc2cccc(F)c2)c1C	-6.5%	1.1%
COc1cc(C2NC(=O)c3c(sc4c3CCN(C)C4)N2)cc(OC)c1OC (stereo not given)	?	2.9%
Cc1ccc(NC(=O)Cn2c(=O)c3ccc(Cl)cc3n3nncc23)cc1	9.0%	-14.1%
CC(C)c1ccc(NC(=O)C(Cc2ccccc2)NS(=O)(=O)c2ccc3c(c2)CCC(=O)N3)cc1 (stereo not given)	-8.1%	-13.0%
Cc1ccc(NC(=O)CN(c2ccccc2)S(=O)(=O)N(C)C)cc1Cl	-11.8%	?
CCOC(=O)N1CCC2(CC1)OC(=O)C(C)=C2C(=O)NCc1ccc(C)cc1	-1.5%	-2.6%
COc1cccc(CN2C(=O)c3ccccc3C2C(=O)NCCc2ccccc2)c1 (stereo not given)	-7.3%	13.6%
Cc1ccc(CCNC(=O)CCS(=O)(=O)c2cc3c(cc2C)NC(=O)CO3)cc1	-1.7%	-15.4%
CCOc1ccc(NC(=O)c2sc3nc4c(cc3c2N)CCCCCC4)cc1	?	?
Cc1nn(CC(=O)NCc2ccccc2Br)c(=O)c2cc3occc3n12	-3.3%	?
CCc1ccc(NC(=O)Cn2c(=O)n(-c3cccc(OC)c3)c(=O)c3c(C)c(C(=O)N(C)C)sc32)cc1	-19.5%	3.3%
COc1cc2nc(N(C)CCCNC(=O)C3CCCO3)nc(N)c2cc1OC (stereo not given)	·	1.0%&-13.7%
CC1=C(C(=O)Nc2ccc(Cl)cc2)C(C(C)C)n2nc(SCc3ccc(Cl)cc3)nc2N1 (stereo not given)	-6.0%	-9.4%
COc1cccc(CN2CCc3nc(N4CCN(c5ncccn5)CC4)ncc3C2)c1	?	25.1µM*
Remaining list, next part.
SMILES	PMP22 txn	HTT promoter inh
CSc1ccc(CCNC(=O)CN2C(=O)COc3ccc(S(=O)(=O)N4CCCCCC4)cc32)cc1	?	?
COc1ccc(C2=CC(c3ccccc3Cl)n3nc(-c4ccc(C)cc4)nc3N2)cc1 (stereo not given)	?	?
CCOc1ccc(OCC)c(NC(=O)Cn2nc(CC)n3c(cc4sccc43)c2=O)c1	-1.7%	1.6%
Cc1ccc(Cl)cc1-n1ncc2c(NC3CCCCCC3)ncnc21	?	?
Cc1cc(C)cc(NC(=O)Cn2c(C)cc(C)c(C#N)c2=O)c1	-2.3%	-3.6%
Cc1cc(C)c2oc(C(=O)Nc3c(C(=O)c4ccc(F)cc4)oc4ccccc34)cc(=O)c2c1	4.6%	1.8%
COC(=O)c1scc(-c2ccc(C)cc2)c1S(=O)(=O)N1CCN(c2ccc(C(C)=O)cc2)CC1	-23.3%	?
CC(C)CN(CC(C)C)CC(O)Cn1cc(/C=C/C(=O)c2ccccc2)c2ccccc21 (stereo not given)	?	-7.9%
Cc1ccc(C)c(Cn2nc(-c3cc(C)ccc3C)ccc2=O)c1	?	?
COC(=O)c1ccc(Cl)cc1NC(=O)N1CC=C(c2c[nH]c3ccccc23)CC1	-27.4%	-28.9%
Cc1cc(C)c2nc(N(Cc3cccnc3)C(=O)CCS(=O)(=O)c3ccccc3)sc2c1	?	5.0%
CCC(Sc1nc2ccccc2c(=O)n1CCc1ccc(OC)c(OC)c1)C(=O)N(CC)CC (stereo not given)	?	?
Cc1ccc(NC(=O)c2ccc3[nH]c(C)cc(=O)c3c2)c(C)c1	8.1%	-10.2%
CCN(c1ccccc1)S(=O)(=O)c1nnc(NC(=O)c2ccco2)s1	23.7%	-16.3%
CCOC(=O)C1CCCN(C(=O)c2ccccc2NC(=O)c2nsc3ccccc23)C1 (stereo not given)	-21.1%	6.8%
Cc1ccc(NC(=O)CCSCCc2ccccn2)cc1	-5.2%	-10.2%
Cn1c(COc2ccccc2C(C)(C)C)nc2ccccc21	-24.5%	?
COc1ccc(NC(=O)CCn2c(=O)c3cccn3c3cccnc32)cc1Cl	-16.8%	6.5%
COc1c(C)cc(NS(=O)(=O)c2ccc3c(c2)OCCO3)cc1C	?	?
O=C(CC1N=C2c3ccccc3N=C(SCC(=O)Nc3ccccc3F)N2C1=O)NCc1ccc2c(c1)OCO2 (stereo not given)	3.0%	7.3%
CCc1ccc(CN(Cc2ccco2)C(=O)c2ccc(C)cc2)cc1	-4.4%	-21.2%

Hits appear at their usual frequency; 2.4% or so of the library scored in one or more.
